YopH PTP inh: YopH (Yersinia) phosphatase inhibition. fluorescence Ex485/Em525. inhibition, %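 (about 10 µM by stock and volumes)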. 140,000 tested, 0.16% active;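 active = inhibition of 50% or more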;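 also: controls were vehicle for no effect and minimum signal wells for full effect; inactives centre near -20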
RecA intein inh: inhibitors of M. tuberculosis RecA intein splicing. cell-free RecA intein splicing, fluorescence. 290,000 tested, 0.75% active. inhibition, %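 (about 9 µM by stock and volumes)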. P9WHJ3; in the data active = inhibition above about 30%; inconclusive = no clear call, values can overlap the other calls;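 also: 0% = vehicle wells and 100% = reference inhibitor control wells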
Target sequence (P9WHJ3 whole entry, looked up): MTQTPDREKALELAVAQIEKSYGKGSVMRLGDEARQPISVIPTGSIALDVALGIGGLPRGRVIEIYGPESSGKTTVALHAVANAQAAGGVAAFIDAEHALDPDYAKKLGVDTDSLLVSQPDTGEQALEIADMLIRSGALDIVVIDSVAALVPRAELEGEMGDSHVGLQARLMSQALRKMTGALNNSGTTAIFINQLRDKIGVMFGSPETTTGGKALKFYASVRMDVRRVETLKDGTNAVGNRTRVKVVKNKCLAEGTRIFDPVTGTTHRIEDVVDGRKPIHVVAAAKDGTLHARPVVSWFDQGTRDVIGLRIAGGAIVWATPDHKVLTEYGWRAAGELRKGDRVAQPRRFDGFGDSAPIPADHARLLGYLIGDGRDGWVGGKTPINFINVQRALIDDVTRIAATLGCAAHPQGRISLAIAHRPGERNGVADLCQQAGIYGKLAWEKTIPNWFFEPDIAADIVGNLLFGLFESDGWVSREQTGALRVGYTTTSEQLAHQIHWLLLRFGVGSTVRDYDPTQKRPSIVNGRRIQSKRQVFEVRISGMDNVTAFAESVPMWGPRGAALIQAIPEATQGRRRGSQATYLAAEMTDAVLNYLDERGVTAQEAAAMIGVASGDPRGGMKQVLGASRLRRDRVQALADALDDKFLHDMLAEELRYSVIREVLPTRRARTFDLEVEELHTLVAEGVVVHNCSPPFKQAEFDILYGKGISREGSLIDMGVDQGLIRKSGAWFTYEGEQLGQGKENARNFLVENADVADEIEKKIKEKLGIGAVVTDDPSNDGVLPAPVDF
Mtb betalactam: beta-lactam sensitization of Mtb H37Rv; M. tuberculosis H37Rv growth with meropenem, percent inhibition; hits of this screen are not shown here; inhibition, % at 25 µM; 330,000 tested, 0.27% active;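 active = about 74% or more and at least 40 points above the plate without the antibiotic, then above 30% in a dose series; inconclusive = first-round hits that could not be retested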;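 also: growth measured after seven days incubation then overnight dye step; 0% = bacteria only wells and 100% = bacteria with antibiotic; twin plates without the antibiotic show which effects depend on it; some results filed as inactive read as strong as hits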
Arbovirus inh: arbovirus infection inhibition; arbovirus infection cell-based antiviral screen; 200,000 tested, 0.37% active; inhibition, % at 10 µM;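 active = inhibition from about 30%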;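 also: bluetongue infection of BSR cells; cell survival read as ATP light after 72 h; 0% = infected wells without compound and 100% = uninfected wells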
Mtb growth: M. tuberculosis H37Rv growth inhibitors, H37Rv strain (AID 1626); M. tuberculosis H37Rv growth inhibition; higher % means a stronger effect; inhibition, % at 10 µM; hits with a dose series show IC50 in µM; 220,000 tested, 0.95% active;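 active = confirmed in a dose series; inconclusive = inhibition above 80% but not taken into the dose series; inactive = below 80% or under 30% at every dose of the series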;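 also: bacteria incubated seven days before Alamar blue readout; 0% = bacteria only wells and 100% = bacteria with antibiotic wells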
Arbovirus inh repeat: second read-out of Arbovirus inh, no call of its own (marks repeat the call); inhibition, %; measured here: 10K subset replicate screen; many hits read low in the repeat;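 first of two repeat runs on a subset; 0% = infected and 100% = uninfected wells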
Starred values were filed as active, the others as inactive; ? = inconclusive; nt = no result given.

SMILES	YopH PTP inh	RecA intein inh	Mtb betalactam	Arbovirus inh	Mtb growth	others
CCOCC(=O)Nc1ccc2c(c1)OCCO2	-1	2.1	-2	0	-6%
COc1ccc(S(=O)(=O)N(Cc2ccco2)Cc2cc3ccccc3[nH]c2=O)cc1	nt	-0.2	0	nt	nt
COc1cccc(N=c2oc3cc(O)ccc3cc2C(=O)NCC2CCCO2)c1 (stereo not given)	nt	nt	5	2	-2%
CCNC(=O)NC(=O)C(C)SCc1ccccc1C (stereo not given)	-28	1.1	8	5	1%
CCCN(CCO)Cc1cccc(Cl)c1	-12	-4.3	-13	12	-9%
CNS(=O)(=O)c1ccc(CCC(=O)N2CCOCC2)cc1	nt	-1.3	1	nt	nt
O=c1c2cc(Br)ccc2nc2n1CCCCC2	-132	-4.0	-5	8	-10%
Cn1nnnc1SCCOc1ccc(C#N)cc1	-46	2.2	-14	7	3%
CC(C)(/C=N/NC(=O)CSCc1ccccc1Cl)CCC#N	-42	0.7	5	9	8%
COc1ccc(C(=O)CSC#N)cc1OC	nt	-5.6	-6	-4	2%
O=C(NCCC1=CCCCC1)c1ccc(F)cc1	-31	0.9	-2	-3	3%
COC(=O)C1CCN(C(=O)c2oc3c(Cl)cc(C)cc3c2C)CC1	nt	3.2	95	nt	nt
O=C(Nc1cccc(-c2ccc3nncn3n2)c1)C(F)(F)F	nt	-3.7	0	nt	nt
COc1cc(NC(=O)c2cc(C)nc3ccccc23)cc(OC)c1	nt	-3.5	10	4	3%
Cc1ccc(S(=O)(=O)N2CCCC2CNC(=O)C(=O)NC2CC2)cc1 (stereo not given)	nt	-2.3	-12	nt	nt

3 compounds out of the list, ordered by formula weight, largest number first:
SMILES	YopH PTP inh	RecA intein inh	Mtb betalactam	Arbovirus inh	Mtb growth	others
COc1ccc(S(=O)(=O)N(Cc2ccco2)Cc2cc3ccccc3[nH]c2=O)cc1	nt	-0.2	0	nt	nt
Cn1nnnc1SCCOc1ccc(C#N)cc1	-46	2.2	-14	7	3%
CCOCC(=O)Nc1ccc2c(c1)OCCO2	-1	2.1	-2	0	-6%

(cont.)
SMILES	YopH PTP inh	RecA intein inh	Mtb betalactam	Arbovirus inh	Mtb growth	others
C/C(=N\NC(=O)c1ccccc1)c1ccc2c(c1)OCO2	-27	-1.9	1	-7	-3%
Cc1ccc(N(C(=O)CNC(=O)c2cccs2)C(C(=O)NC2CCCC2)c2ccncc2)cc1 (stereo not given)	nt	-0.4	-6	nt	nt
COc1cc(N)c(Cl)cc1C(=O)OCC(=O)c1cccs1	nt	2.3	3	nt	nt
Cc1cccnc1NC(=O)CN1C(=O)COc2ccc(Cl)cc21	nt	-1.7	2	nt	nt
Cn1c(=O)oc2cc(S(=O)(=O)N3CCN(Cc4ccc5c(c4)OCO5)CC3)ccc21	0	0.1	6	5	0%
CCOC(=O)C1=C(COC(=O)/C=C/c2cccc(OC)c2)NC(=O)NC1C (stereo not given)	nt	-1.7	-5	nt	nt
CC1Oc2ccccc2C=C1/C=N\NC(=O)c1cccnc1 (stereo not given)	nt	-3.1	-5	nt	-7%
Cc1nn(Cc2ccccc2Cl)c(Cl)c1/C=C/C(=O)OCC(=O)NC1CCS(=O)(=O)C1 (stereo not given)	nt	1.4	-3	3	4%
Cc1ccc(S(=O)(=O)Nc2c(C)nn(C)c2C)cc1C	nt	-1.4	-8	nt	nt
COc1cccc(OC)c1OCCCCc1c(C)n[nH]c1C	nt	0.3	-5	-4	9%
O=C1N/C(=N\S(=O)(=O)Cc2ccccc2)S/C1=C/c1cccc([N+](=O)[O-])c1	nt	6.8	-3	nt	-11%
COC(=O)C1=C(C)OC(N)=C(C#N)C1c1ccccc1F (stereo not given)	-31	-2.1	-1	16	-10%	Arbovirus inh repeat=1
Fc1ccc(-n2nnc(-c3ccccc3Br)n2)cc1	nt	1.9	9	nt	nt
COc1cc(CCC(=O)OCC(=O)Nc2cccc(S(N)(=O)=O)c2)cc(OC)c1OC	-30	-0.8	-1	4	-3%
Cc1ccc2nc(-c3sc4nc(C)ccc4c3N)[nH]c2c1	7	-45	10	-1	-8%
COc1ccc(N2C(=O)CCC(C(=O)NCCCN3CCC(C)CC3)C2c2ccc(OC)c(OC)c2)cc1 (stereo not given)	nt	1.6	-3	4	-15%
O=C(CN1CCC(n2nnc3cc(F)ccc32)CC1)NNC(=O)c1ccccc1	-31	0.4	19	3	-6%
COc1ccc(/C=C/C(=O)OCC(=O)Nc2ccc(OC)c(S(=O)(=O)N3CCCCC3)c2)cc1	-28	-1.1	-1	-1	11%
O=C(O/N=C1\CCS(=O)(=O)c2sccc21)c1ccccc1	-20	2.2	-1	-2	1%
CN(C)c1ccc(/C=N/n2c(C3CCCCC3)n[nH]c2=S)cc1	nt	-0.1	?	nt	nt
NC(=NCc1ccco1)NC(=O)c1ccccc1	nt	2.4	6	nt	nt
COC(=O)CCC(=O)Nc1sc2c(c1C#N)CCCC2	-53	1.7	-3	-2	-2%
CC(C)(C)C1CCc2onc(C(=O)Nc3cccnc3)c2C1 (stereo not given)	-29	-0.4	5	3	9%
Cc1onc(-c2c(Cl)cccc2Cl)c1/C(N)=N/OC(=O)C1CC1	nt	2.5	nt	nt	7%
COc1nc2ccccc2nc1CCC(=O)O	nt	-1.1	-4	8	-2%
CN(C)S(=O)(=O)N1C(=O)c2ccccc2C1=O	nt	2.0	-1	nt	-1%
Cc1sc(NC(=O)Cn2[nH]c(=O)c3ccccc3c2=O)nc1-c1ccccc1	-8	-2.4	45	0	12%
N#Cc1nc(-c2ccco2)oc1N1CCN(c2ccccc2)CC1	-55	-1.5	-9	-4	6%
O=C1Cn2c(nc3ccccc32)N1c1ccccc1F	-14	-0.5	-4	-5	1%
c1cc2ccc3ccc(-n4cnnn4)c4ccc(c1)c2c34	-32	1.6	-9	-9	8%
CCOC(=O)c1cccc(Nc2ncnc3ccc(C)cc23)c1	-26	3.5	88	0	13%
N/C(=N\OC(=O)CCCOc1ccc(Cl)cc1Cl)c1ccncc1	nt	2.9	4	-21	15%
Cc1ccc(Nc2c(-c3ccc(N(C)C)cc3)nc3ncccn23)cc1	nt	-1.4	10	nt	2%
CCN(CC)S(=O)(=O)c1ccc(N2CCOCC2)c(NC(=O)c2cc(-c3ccccn3)nc3ccccc23)c1	nt	6.2	nt	16	8%
COc1ccccc1OCCn1cc(C(=O)c2ccco2)c2ccccc21	-33	nt	-1	10	-10%
CCOC(=O)C1C(c2ccccc2O)NC(=O)NC1(O)C(F)(F)F (stereo not given)	nt	-3.4	-1	nt	nt
CSc1nnc(NC(=O)c2nc(S(=O)(=O)Cc3ccccc3)ncc2Cl)s1	nt	72*	-4	nt	nt
CSc1ccc(/C=C2\NC(=O)NC2=O)cc1	nt	1.4	31	nt	nt
NC(=S)N=Nc1c(O)n(Cc2ccc(Br)cc2)c2ccccc12	-26	2.3	4	0	2%
COc1ccc(CCN=C(NS(=O)(=O)c2ccccc2)c2ccccc2)cc1OC	nt	0.4	-3	-1	-12%
CC(C#Cc1c([C@@H](C)Oc2ccccc2)nnn1Cc1ccccc1)Oc1ccccc1 (stereo not given in full)	nt	11	-9	nt	4%
CSC1=NCCN1C(=O)c1cccc(Br)c1	-21	0.4	-5	3	9%
COc1ccc(-c2[nH]ncc2CN2CCSCC2)c(OC)c1	nt	-0.4	-12	3	-1%
Cc1ccc(C(=O)CS(C)(=O)=O)cc1	-83	-0.8	-17	5	3%
Cc1csc(NC(=O)C(C)N2C(=O)c3ccccc3S2(=O)=O)n1 (stereo not given)	nt	1.9	-8	nt	nt
Cn1ncc([N+](=O)[O-])c1C(=O)Nc1nccs1	-33	-3.7	-4	-1	-3%
COc1ccc([C@@H]2[C@@H]3C(=O)N(C(C)(C)C)C(=O)[C@@H]3[C@]3(Cc4ccccc4)C(=O)N(c4cccc(Cl)c4)C(=O)N23)cc1	nt	3.8	-13	nt	nt
COc1ccc(-c2nc(SC)n(C)c(=O)c2C#N)cc1OC	-37	-1.7	12	-2	3%	Arbovirus inh repeat=-5
CC(C)NC(=O)CN(Cc1ccc(F)cc1)C(=O)CCC(=O)Nc1nccs1	nt	0.0	6	nt	nt
COc1cc(C(=O)ON=C2C3CC4CC(C3)CC2C4)cc(OC)c1OC	nt	7.9	93	nt	nt
CC(O)c1nc2ccccc2n1CCOc1ccccc1 (stereo not given)	32	1.7	1	8	-6%
N#C/C(=C\c1cn[nH]c1-c1ccc(Cl)cc1)C(=O)NCc1ccccc1	-17	1.0	23	37*	nt
CSc1ccccc1OCc1cc(C(=O)N(C)CCc2c(C)n[nH]c2C)no1	nt	1.9	-5	nt	nt
CCCn1c(SCC(=O)NNC(=O)c2ccc(OC)cc2)nnc1C(C)C	nt	1.0	3	nt	nt
CC1(C(=O)NNC(=O)c2ccc(=O)oc2)CC1Br (stereo not given)	nt	0.5	0	nt	-12%
Cc1ccc(NC(=O)CNCC(c2ccccc2)N(C)C)cc1F (stereo not given)	nt	3.8	-1	nt	1%
Cc1ccc(C(=O)NNC(=O)c2csc(N3CCOCC3)n2)o1	nt	-0.7	-4	nt	nt
O=C(OCCNc1nc(-c2ccccc2)nc2ccccc12)c1ccncc1	nt	8.2	5	16	9%
Cc1cc(C)n(-c2ccc(C(=O)Nc3ccccc3N3CCOCC3)cc2)n1	-45	10	10	1	3%
COc1ccccc1C(=O)Nc1ccc2c(c1)n(C)c(=O)n2C	nt	-0.3	-1	nt	nt
(more compounds)
SMILES	YopH PTP inh	RecA intein inh	Mtb betalactam	Arbovirus inh	Mtb growth	others
CN1C2CCC1/C(=C\c1ccccc1)C(=O)/C2=C\c1ccccc1	-26	-0.7	?	-9	2%
CC1CCN(CC(=O)Nc2sc3c(c2C#N)CCC3)CC1	-30	-0.6	-6	-13	-12%
COc1ccc(-c2nc(C(=O)NCC3CCCO3)cc3c2[nH]c2ccccc23)cc1 (stereo not given)	nt	2.6	-6	nt	nt
CCC(=O)Nc1ccc(C(=O)CSc2nc3ccc(C)cc3[nH]2)cc1	-24	-0.5	-2	-5	14%
CCn1c(=O)c(=O)n(CC)c2cc(S(=O)(=O)Nc3cccc(OC)c3)ccc21	-41	-2.1	4	0	-10%
Cc1ccc(C(=O)CCNc2ccc(Br)cc2)o1	-10	0.9	-6	-11	3%
CCCCn1c(N)c(N(CCC(C)C)C(=O)CC2OC(=O)c3ccccc32)c(=O)[nH]c1=O (stereo not given)	nt	0.9	-7	nt	nt
O=C(Nc1nncs1)c1ccc2c(c1)OCO2	nt	1.7	2	nt	nt
COc1cccc(N2CCN(S(=O)(=O)c3c(C)[nH]c(C)c3C(=O)N3CCCC3)CC2)c1	nt	-4.3	-1	nt	nt
O=C(Nc1ccc2ccccc2n1)C1CCCCC1	nt	1.3	-3	nt	6%
CC12CC3(C)CC(C)(C1)CC(C(=O)NCc1ccccn1)(C2)C3	nt	-0.2	1	3	0%
Cc1ccc2sc(N(CCCN(C)C)C(=O)c3ccc(S(=O)(=O)N4CCCCCC4)cc3)nc2c1C	nt	6.2	-5	nt	nt
CC1=C(C(=O)OCc2ccccc2)C(c2cccnc2)c2c(n(C)c(=O)n(C)c2=O)N1 (stereo not given)	-17	-0.6	-5	-9	-2%
COC(=O)COc1cc(Cl)c(C=O)cc1OC	nt	-0.6	1	3	4%
Cc1cc(C)c(S(=O)(=O)Nc2cccc3nsnc23)c(C)c1	-36	8.5	-4	15	nt

Reprinted from the part before: 2 entries, followed by the next part.
SMILES	YopH PTP inh	RecA intein inh	Mtb betalactam	Arbovirus inh	Mtb growth	others
COC(=O)COc1cc(Cl)c(C=O)cc1OC	nt	-0.6	1	3	4%
Cc1cc(C)c(S(=O)(=O)Nc2cccc3nsnc23)c(C)c1	-36	8.5	-4	15	nt
COc1cccc(CNC(=O)C2CCN(S(=O)(=O)c3ccc4c(c3)NC(=O)CO4)CC2)c1	nt	-2.4	0	nt	nt
CCOC(=O)c1cnc(SC)nc1Oc1cccc(NC(=O)c2ccc(Cl)cc2)c1	-47	-1.0	64	-1	13%
CC(=O)c1sc(NC(=O)c2cccc(C)c2)nc1C	nt	0.7	-1	3	2%
COc1cc(N=c2ssnc2Cl)cc(OC)c1OC	-12	-1.5	-3	-4	55%
Cc1nnc(Nc2ccccc2)n(N)c1=O	1	-2.7	1	-5	-4%
COCCNCC(=O)NC12CC3CC(CC(C3)C1)C2	-46	-1.3	-2	3	-6%
CCN(CC)CCN(C(=O)CCOc1ccccc1)c1nc2ccc(F)cc2s1	nt	0.7	-14	2	4%
CC1(C)CSC(=NCc2ccccc2)N1C(=O)c1cccc([N+](=O)[O-])c1	-34	0.0	4	8	4%
CC(=O)c1cnn(-c2cc(Oc3ccc(F)cc3)ncn2)c1C	2	1.2	98	2	1%
CCC(=O)c1ccc(OCC(=O)NCCc2ccccn2)cc1	nt	-20	-8	14	6%
CCOC(=O)C1(Cc2ccccc2Cl)CCN(C(=O)c2cnccn2)CC1	nt	-0.9	-6	-2	4%

From PubChem BioAssay

Only part of the results is shown. The share of hits here may be higher or lower than overall.
